Compound activity (PubChem BioAssay)
GALR2 ag = GALR2 receptor agonists, primary screen, cell-based; activation, %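 (tested at 5 µM)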; Galanin receptor type 2 (Homo sapiens), O43603; AID 803, 2007; GALR2-expressing cells, agonist activation read-out; hit rate 0.48% among 140,000;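 active means above mean plus 3 SD of all compounds, about 5% in these data, not always enough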;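 further: 0% = vehicle buffer wells and 100% = reference agonist at full effect; tested in CHO reporter cells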
Target sequence (O43603 whole entry, looked up): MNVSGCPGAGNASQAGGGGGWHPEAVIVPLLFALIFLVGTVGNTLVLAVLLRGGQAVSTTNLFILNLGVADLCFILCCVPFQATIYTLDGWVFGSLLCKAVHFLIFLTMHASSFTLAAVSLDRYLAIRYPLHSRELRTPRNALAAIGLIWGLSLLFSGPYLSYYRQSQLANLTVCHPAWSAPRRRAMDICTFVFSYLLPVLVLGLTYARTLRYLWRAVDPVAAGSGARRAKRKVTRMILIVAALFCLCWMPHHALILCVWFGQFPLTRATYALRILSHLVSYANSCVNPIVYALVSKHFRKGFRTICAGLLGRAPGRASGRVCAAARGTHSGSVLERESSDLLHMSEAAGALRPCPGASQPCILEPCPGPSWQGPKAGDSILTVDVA
PKD1 kinase inh = inhibitors of human PKD1 kinase, biochemical, fluorescence polarization | Serine/threonine-protein kinase D1 (Homo sapiens), Q15139 | hit rate 0.056% among 200,000 | AID 797, 2007 | inhibition, %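 (about 10 µM by stock and volumes)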 | PKD1 kinase fluorescence polarization assay;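 active means inhibition of 50% or more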;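 further: controls were vehicle for no effect and a reference inhibitor for full effect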
HSV replic up = enhancers of HSV replication in host cells, fold increase, host cell viability; maximum fold increase; HSV replication augmentation in cells; hit rate 0.005% among 220,000; AID 1956, 2009;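 active means peak rise of 1.5-fold or more in the series; tested in PC3 cells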;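 further: first round at 10 µM; read as green reporter fluorescence; hits show the peak of a series up to 25 µM; 1 = signal of infected wells without compound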
INS promoter inh = inhibitors of insulin promoter-driven GFP, primary screen, imaging, TRM-6 cells (human fetal islet line), eGFP reporter, cell count; hit rate 0.9% among 130,000; reporter expression induced with tamoxifen; inhibition, % at 2 µM; AID 1273, 2008;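 active means inhibition above the mean plus 3 SD, with well images judged a real hit on visual review, cut at about 60% in these data, passing the limit was not always enough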
RGS16-Gao = modulators of RGS16 binding to Galphao, primary screen, biochemical, human proteins, multiplexed bead flow cytometry; hit rate 0.38% among 220,000; AID 1441, 2008; bead-based flow cytometry RGS16-Galphao binding, fluorescence; actives lie on both sides; binding response (% of control), % at 10 µM;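 active means below 25% or above 175%, edge rows of some plates excepted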;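 further: Galphao activated by GDP with aluminum fluoride before binding; 100% = wells without compound and 0% = beads without RGS; some results beyond the cut were filed as inactive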
Target sequence (O15492 whole entry, looked up): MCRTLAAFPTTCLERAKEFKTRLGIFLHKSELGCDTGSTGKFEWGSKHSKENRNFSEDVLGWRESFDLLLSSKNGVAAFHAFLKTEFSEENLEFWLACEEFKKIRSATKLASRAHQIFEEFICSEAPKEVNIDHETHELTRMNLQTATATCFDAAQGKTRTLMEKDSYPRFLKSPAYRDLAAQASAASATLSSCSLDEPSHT
Target sequence (P09471 whole entry, looked up): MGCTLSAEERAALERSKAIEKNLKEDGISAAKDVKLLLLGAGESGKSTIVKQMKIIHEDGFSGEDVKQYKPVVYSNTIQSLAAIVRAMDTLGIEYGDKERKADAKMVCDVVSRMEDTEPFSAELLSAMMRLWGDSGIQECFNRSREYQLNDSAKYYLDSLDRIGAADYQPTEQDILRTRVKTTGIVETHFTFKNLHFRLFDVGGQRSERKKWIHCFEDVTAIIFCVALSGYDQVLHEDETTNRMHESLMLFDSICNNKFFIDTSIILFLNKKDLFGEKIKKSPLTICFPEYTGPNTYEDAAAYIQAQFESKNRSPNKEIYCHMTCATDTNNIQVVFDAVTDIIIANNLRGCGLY
INS promoter inh cell count = further read-out of INS promoter inh, marked with its call; normalized cell count, %; measured here: cell count, toxicity; reference of the scale not given here;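 cells exposed to compound for 48 h; stained nuclei by imaging scaled within each plate; lower means fewer cells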
HSV replic up primary fold = also measured in HSV replic up; calls as there; fold increase; compound at 10 µM; measured here: primary screen fold increase 10 uM; tested in PC3 cells;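 GFP signal in the first replicate; 1 = infected wells without compound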
* hit, by the source's call.

For CC(=O)Nc1cccc(NC(=O)CSc2ncc(-c3ccc(Cl)cc3)n2Cc2ccco2)c1 the results were GALR2 ag -1.1, PKD1 kinase inh 7.7, HSV replic up inactive, RGS16-Gao 99.0 and HSV replic up primary fold 1.
For CCOC(=O)N1CCN(C(=O)c2cc3c(=O)[nH]c4ccccc4c3s2)CC1 the results were GALR2 ag -0.6, PKD1 kinase inh 0.6, INS promoter inh 22.2, RGS16-Gao 100.1 and INS promoter inh cell count 116.6.
`CC(C)N(Cc1ccccc1)C(=S)NCc1ccccc1` gave PKD1 kinase inh -6.2, HSV replic up inactive, INS promoter inh 0.0, RGS16-Gao 103.5, INS promoter inh cell count 73.2 and HSV replic up primary fold 1.01.
CN(C)c1cccc2c1c(NC(=O)Nc1ccc(Cl)cc1Cl)nn2C was read as HSV replic up inactive, RGS16-Gao 99.6 and HSV replic up primary fold 0.82.
CN1CCN(/C=N/c2c(C#N)cnn2C)CC1 was read as GALR2 ag 0.4, PKD1 kinase inh 5.4, HSV replic up inactive, INS promoter inh -281.2, RGS16-Gao 105.1, INS promoter inh cell count 82.8 and HSV replic up primary fold 0.74.
For CCOC(=O)N1CCC(N2C(=O)c3ccccc3C2Nc2ccccc2)CC1 (stereo unspecified) the results were GALR2 ag -1.6, PKD1 kinase inh -3.8, HSV replic up inactive, RGS16-Gao 110.6 and HSV replic up primary fold 1.27.
Cc1cccc(N2CCN(C(c3ccncc3)c3nnnn3C(C)(C)C)CC2)c1C (stereo unspecified) was read as PKD1 kinase inh -5.7, HSV replic up inactive, RGS16-Gao 99.6 and HSV replic up primary fold 1.02.
`O=C(CSc1ncccn1)N/N=C/c1ccccc1[N+](=O)[O-]` gave PKD1 kinase inh -1.7, HSV replic up inactive, INS promoter inh -66.7, RGS16-Gao 105.6, INS promoter inh cell count 125.2 and HSV replic up primary fold 1.01.
Screening COc1ccccc1-c1cn(S(=O)(=O)c2ccc(C)cc2)nc1N returned GALR2 ag -1.5, PKD1 kinase inh -2.1, HSV replic up inactive, INS promoter inh 53.9, RGS16-Gao 103.0, INS promoter inh cell count 102.0 and HSV replic up primary fold 0.87.
CCC(=O)Nc1nonc1-c1nc2ccccc2n1Cc1ccccc1 was read as GALR2 ag -1.9, PKD1 kinase inh 0.1, HSV replic up inactive, RGS16-Gao 99.5 and HSV replic up primary fold 0.85.
For Fc1ccccc1OCCSc1nnnn1-c1ccccc1 the results were GALR2 ag -0.8, PKD1 kinase inh 0.8, HSV replic up inactive, INS promoter inh -257.1, RGS16-Gao 90.8, INS promoter inh cell count 56.2 and HSV replic up primary fold 1.05.
`O=C(CCc1nc2ccccc2c(=O)[nH]1)OCc1cccc(C(F)(F)F)c1` gave GALR2 ag -0.8, PKD1 kinase inh 0.9, HSV replic up inactive, INS promoter inh -12.8, RGS16-Gao 96.4, INS promoter inh cell count 80.5 and HSV replic up primary fold 0.95.
Screening CC1CC(C)CN(C(=O)C(C)N(C)CC(=O)Nc2ccc(Cl)cc2)C1 (stereo unspecified) returned PKD1 kinase inh 4.0, HSV replic up inactive, RGS16-Gao 101.8 and HSV replic up primary fold 1.02.
O=C(CCC1N=C2c3ccccc3N=C(SCc3ccccc3Cl)N2C1=O)NCc1ccco1 (stereo unspecified) was read as GALR2 ag 1.1, PKD1 kinase inh -5.1, HSV replic up inactive, INS promoter inh -60.0, RGS16-Gao 97.9, INS promoter inh cell count 104.7 and HSV replic up primary fold 1.06.
Cn1c(=O)oc2cc(NC(=O)CCl)ccc21 was read as HSV replic up inactive, RGS16-Gao 110.7 and HSV replic up primary fold 0.81.

Overlap with the part before: 3 entries; new compounds follow.
Screening CC1CC(C)CN(C(=O)C(C)N(C)CC(=O)Nc2ccc(Cl)cc2)C1 (stereo unspecified) returned PKD1 kinase inh 4.0, HSV replic up inactive, RGS16-Gao 101.8 and HSV replic up primary fold 1.02.
O=C(CCC1N=C2c3ccccc3N=C(SCc3ccccc3Cl)N2C1=O)NCc1ccco1 (stereo unspecified) was read as GALR2 ag 1.1, PKD1 kinase inh -5.1, HSV replic up inactive, INS promoter inh -60.0, RGS16-Gao 97.9, INS promoter inh cell count 104.7 and HSV replic up primary fold 1.06.
Cn1c(=O)oc2cc(NC(=O)CCl)ccc21 was read as HSV replic up inactive, RGS16-Gao 110.7 and HSV replic up primary fold 0.81.
`Cc1cc(C(=O)N2CCCCCC2)cs1` gave GALR2 ag -3.4, PKD1 kinase inh 0.4, HSV replic up inactive, INS promoter inh -161.9, RGS16-Gao 99.9, INS promoter inh cell count 79.6 and HSV replic up primary fold 1.25.
For Cc1nc2sc(C(=O)OC(C)C)c(N)c2c(C)c1C the results were PKD1 kinase inh -7.8, HSV replic up inactive, INS promoter inh 100.0*, RGS16-Gao 127.3, INS promoter inh cell count 176.2* and HSV replic up primary fold 0.9.
`Cc1ccc(C2=N/C(=C\N(C)C)C(=O)O2)cc1` gave GALR2 ag -0.6, PKD1 kinase inh -7.4, HSV replic up inactive, INS promoter inh -29.7, RGS16-Gao 100.1, INS promoter inh cell count 106.5 and HSV replic up primary fold 1.01.
Screening Cc1ccc(S(=O)(=O)N2CCOC2CNC(=O)C(=O)NCc2ccco2)cc1 (stereo unspecified) returned GALR2 ag -1.2, PKD1 kinase inh 4.2, HSV replic up inactive, INS promoter inh -2.4, RGS16-Gao 84.1, INS promoter inh cell count 134.0 and HSV replic up primary fold 0.79.
Screening O=C(c1cccs1)N1CCN(C/C=C/c2ccccc2)CC1 returned GALR2 ag -1.4, PKD1 kinase inh -1.9, HSV replic up inactive, RGS16-Gao 105.2 and HSV replic up primary fold 1.02.
For CCOC(=O)[C@H]1NN=C(C(=O)OC)[C@@H]1c1ccccc1 the results were GALR2 ag -1.1, PKD1 kinase inh -8.6, HSV replic up inactive, INS promoter inh -16.7, RGS16-Gao 111.8, INS promoter inh cell count 79.3 and HSV replic up primary fold 1.06.
CCOC(=O)c1ccc(N2C(=O)C(C)=C(C)C2=O)cc1 was read as GALR2 ag -3.1, PKD1 kinase inh -2.5, HSV replic up inactive, RGS16-Gao 102.7 and HSV replic up primary fold 0.98.
`CCC1SC(CC)C(=O)N(CC(=O)NCc2ccc(F)cc2)C1=O` (stereo unspecified) gave PKD1 kinase inh -3.2, HSV replic up inactive, INS promoter inh -23.1, RGS16-Gao 93.5, INS promoter inh cell count 70.9 and HSV replic up primary fold 1.
`CSCCC(NS(=O)(=O)c1ccc(Cl)c(Cl)c1)C(=O)O` (stereo unspecified) gave PKD1 kinase inh 7.5, HSV replic up inactive, RGS16-Gao 101.5 and HSV replic up primary fold 1.11.
`Cc1cc(C)n2nc(S(=O)(=O)Nc3c(Cl)cccc3Cl)nc2n1` gave PKD1 kinase inh 2.0, HSV replic up inactive, INS promoter inh 38.9, RGS16-Gao 82.8, INS promoter inh cell count 68.1 and HSV replic up primary fold 1.08.
Screening O=C(Nc1ccccc1)Nc1ccccc1C(=O)NCCCN1CCOCC1 returned HSV replic up inactive, RGS16-Gao 95.2 and HSV replic up primary fold 0.92.
CC(C)N(Cc1ccccc1)C(=O)c1cnc2n(c1=O)CCS2 was read as GALR2 ag -1.7, PKD1 kinase inh -12.4, HSV replic up inactive, RGS16-Gao 106.6 and HSV replic up primary fold 1.16.
`CCCCCN(C(=O)CN1CCC(Cc2ccccc2)CC1)c1c(N)n(CCCC)c(=O)[nH]c1=O` gave PKD1 kinase inh 5.8, HSV replic up inactive, RGS16-Gao 98.4 and HSV replic up primary fold 1.18.
Cc1ccc(C(=O)NCCOc2cccc3cccnc23)cc1Cl was read as PKD1 kinase inh 2.7, HSV replic up inactive, RGS16-Gao 102.9 and HSV replic up primary fold 0.8.
`COc1cc(C=O)c(Cl)cc1OCC(N)=O` gave PKD1 kinase inh -4.2, HSV replic up inactive, INS promoter inh 29.4, RGS16-Gao 95.0, INS promoter inh cell count 41.8 and HSV replic up primary fold 1.24.
For CCOc1ccc(N2C(=O)Nc3ccccc3C2(O)C(=O)NCc2ccc(F)cc2)cc1 (stereo unspecified) the results were PKD1 kinase inh 4.5, HSV replic up inactive, RGS16-Gao 102.7 and HSV replic up primary fold 1.03.
For CC1CN(S(=O)(=O)c2ccc(C(=O)Nc3ccc(S(=O)(=O)Nc4ncccn4)cc3)cc2)CC(C)O1 (stereo unspecified) the results were GALR2 ag -0.9, PKD1 kinase inh -0.3, INS promoter inh 38.5, RGS16-Gao 102.0 and INS promoter inh cell count 107.9.
Screening CC(=O)c1cc2c(cc1NC(=O)c1c(-c3ccccc3)noc1C)OCO2 returned GALR2 ag 0.3, PKD1 kinase inh -2.5, HSV replic up inactive, INS promoter inh 20.0, RGS16-Gao 106.2, INS promoter inh cell count 109.3 and HSV replic up primary fold 0.96.
O=C1c2ccccc2C(=O)N1Cc1ccco1 was read as GALR2 ag -1.1, PKD1 kinase inh 10.2, HSV replic up inactive, INS promoter inh -35.0, RGS16-Gao 85.8, INS promoter inh cell count 137.1 and HSV replic up primary fold 0.81.
O=Cc1cccn1Cc1ccccc1[N+](=O)[O-] was read as GALR2 ag -0.2, PKD1 kinase inh -1.0, HSV replic up inactive, INS promoter inh 24.3, RGS16-Gao 36.8, INS promoter inh cell count 121.8 and HSV replic up primary fold 1.02.
Screening CCCCNS(=O)(=O)c1ccc2nc(SCC(=O)Nc3ccccc3)[nH]c2c1 returned GALR2 ag -1.5, PKD1 kinase inh -5.5, HSV replic up inactive, INS promoter inh 15.4, RGS16-Gao 196.3, INS promoter inh cell count 95.0 and HSV replic up primary fold 0.88.
Screening CS(=O)(=O)N(CC(=O)N1CCCCC1)c1cccc(F)c1 returned PKD1 kinase inh 1.9, HSV replic up inactive, INS promoter inh -13.3, RGS16-Gao 99.8, INS promoter inh cell count 105.8 and HSV replic up primary fold 0.93.
`COCCn1c(=NC(=O)c2cc(-c3cccs3)nc3ccccc23)sc2cc(S(N)(=O)=O)ccc21` gave GALR2 ag -0.1, PKD1 kinase inh -13.2, HSV replic up inactive, INS promoter inh -32.0, RGS16-Gao 73.0, INS promoter inh cell count 62.0 and HSV replic up primary fold 0.67.
Screening O=C(CCCCCNC(=O)c1ccccc1Cl)N/N=C/c1ccco1 returned PKD1 kinase inh -10.3, HSV replic up inactive, INS promoter inh -33.3, RGS16-Gao 98.1, INS promoter inh cell count 115.7 and HSV replic up primary fold 1.
For CCOc1ccccc1-n1c(=O)c2ccccc2c2ccccc2c1=O the results were GALR2 ag -1.7, PKD1 kinase inh -3.6, HSV replic up inactive, INS promoter inh 5.4, RGS16-Gao 120.7, INS promoter inh cell count 98.0 and HSV replic up primary fold 0.85.
CC(C)NC(=S)NCc1cccs1 was read as PKD1 kinase inh -2.0, HSV replic up inactive, RGS16-Gao 103.6 and HSV replic up primary fold 0.86.
Cc1ccc(-c2nc3ccccc3n3c(C)nnc23)cc1 was read as GALR2 ag -2.1, PKD1 kinase inh -7.5, HSV replic up inactive, RGS16-Gao 104.0 and HSV replic up primary fold 1.07.
`O=C(CCC1CCCN(Cc2ccc3c(c2)OCCO3)C1)NCc1ccccc1F` (stereo unspecified) gave HSV replic up inactive, RGS16-Gao 97.8 and HSV replic up primary fold 0.85.
Screening Nc1c([N+](=O)[O-])c(=O)sc2ccccc12 returned PKD1 kinase inh -1.1, HSV replic up inactive, RGS16-Gao 98.2 and HSV replic up primary fold 0.96.
`COc1ccc(OC)c(NC(=O)C2CCN(c3nc(C)cc(C)n3)CC2)c1` gave GALR2 ag -0.5, PKD1 kinase inh -3.2, HSV replic up inactive, INS promoter inh 65.4, RGS16-Gao 101.8, INS promoter inh cell count 114.8 and HSV replic up primary fold 0.97.
CCC(CCC(=O)Nc1cccc([N+](=O)[O-])c1)C(=O)O (stereo unspecified) was read as HSV replic up inactive, RGS16-Gao 96.6 and HSV replic up primary fold 0.95.
Screening O=C(COc1ncnc2ccccc12)N1CCN(S(=O)(=O)c2ccccc2)CC1 returned GALR2 ag -1.1, PKD1 kinase inh 4.4, HSV replic up inactive, INS promoter inh -90.9, RGS16-Gao 89.3, INS promoter inh cell count 114.3 and HSV replic up primary fold 1.04.
CNC(=O)COC(=O)CCC(=O)c1ccc(Cl)cc1 was read as PKD1 kinase inh 1.9, HSV replic up inactive, INS promoter inh -14.3, RGS16-Gao 102.5, INS promoter inh cell count 84.8 and HSV replic up primary fold 0.95.
`O=C(O)c1cccc(CSc2ncn[nH]2)c1` gave HSV replic up inactive, RGS16-Gao 102.7 and HSV replic up primary fold 1.07.
